miR-21 reporter = miR-21 reporter, rising signal; HeLa miR-21 FLuc reporter, luciferase, 48 h; Potency, µM (top dose mostly 38.3 µM), for inactives: top-dose reporter change, positive = more light; 340,000 tested, under 10 active; AID 2288; active = well fitted rising curve with a large enough effect; inconclusive = small, poorly fitted or top-dose-only effect; inactive = no such curve, though single readings can be large or run the other way;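 also: % of control where 0% means no effect; miR-21 action dims this reporter so a rising signal means less miR-21 action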
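HeLa cells endogenously expressing miR-21, stably carrying CMV-driven firefly luciferase with a downstream miR-21 binding site, 2000 cells/well. Titrations up to approximately 40 uM, 48 hours; luciferase luminescence read.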
Rango complex inh = inhibitors of Rango-importin beta complex formation | Rango CFP/YFP FRET sensor + importin beta, 45 min | Potency, µM (doses to about 92.2 µM), for inactives: at the highest dose inhibition of complex formation | 340,000 compounds, 0.031% hits | AID 540263; active = rising FRET ratio curve, often small or poorly fitted; inconclusive = mostly compound fluorescence or quenching in the first reads; inactive = flat curves in all reads;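 also: potency is read from the fitted curve at half-maximal effect; 0% = DMSO wells and 100% = buffer wells lacking importin beta; nearly all actives have a fitted effect of over 15% in size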
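FRET biosensor (snurportin 1 IBB flanked by EYFP and cerulean), 50 nM, with compound 5 min, then 0.125 microM importin beta in PBS, 1 mM DTT, 0.02% Tween-20, 0.1% BSA. CFP/YFP ratio read after 45 min at room temperature; pre-read flags interference.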
GLA inh pH 4.5 = alpha-galactosidase A (human) inhibition, pH 4.5. P06280. purified enzyme, 4-MU-alpha-Gal fluorescence, pH 4.5. activity change, negative = inhibition, % at 105 µM. 230,000 tested, under 10 active. AID 1467; inconclusive = small, poorly fitted or top-dose-only inhibition, or a rising curve; inactive = flat fitted curve, though single readings scatter; no compound was filed as active;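 also: 0% = full activity with enzyme and -100% = basal without enzyme; dose as in the result columns while the protocol names 77 µM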
Target sequence (P06280 whole entry, looked up): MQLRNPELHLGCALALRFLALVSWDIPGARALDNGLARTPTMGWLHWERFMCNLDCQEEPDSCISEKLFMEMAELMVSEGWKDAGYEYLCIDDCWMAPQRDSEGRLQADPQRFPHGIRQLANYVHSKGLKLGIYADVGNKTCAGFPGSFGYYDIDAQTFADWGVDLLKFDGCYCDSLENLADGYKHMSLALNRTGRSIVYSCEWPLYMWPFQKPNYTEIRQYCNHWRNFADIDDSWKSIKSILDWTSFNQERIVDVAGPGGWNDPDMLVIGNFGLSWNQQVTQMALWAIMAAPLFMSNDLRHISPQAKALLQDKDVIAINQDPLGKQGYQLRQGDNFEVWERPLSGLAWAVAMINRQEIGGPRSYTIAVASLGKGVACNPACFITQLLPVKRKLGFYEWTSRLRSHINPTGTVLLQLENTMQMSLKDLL
Rango dissoc inh = prevents RanGTP from dissociating the Rango-importin beta complex | Potency, µM (series often up to 46.1 µM), without a hit: at the highest dose activity change, negative = inhibition | O95149+P62826 | 340,000 compounds, 0.071% hits | AID 540253 | Biochemical FRET Rango-importin beta, RanGTP-induced dissociation; active means falling FRET ratio curve, often poorly fitted, with flat reads before Ran was added; inconclusive means other falling curves, or compound fluorescence or quenching; inactive means flat or rising ratio curve;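 also: potency is read from the fitted curve at half-maximal effect; % of control where 0% means no effect; nearly all actives have a fitted effect of over 45% in size; -100% = wells without RanGTP and RCC1; the record marks most hits as doubtful in a second field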
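Quantitative HTS using a FRET biosensor: 0.1 uM Rango, 0.25 uM importin beta, 0.6 uM Ran, 2 mM GTP, 0.2 uM RCC1 final, PBS with DTT, Tween-20 and BSA. Post-read taken 45 min after Ran addition.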
* marks the source's active call; other numbers are inactive results; ? = inconclusive; . = no result given; & = joins results of further samples; [ ] = dose if it differs, or a comment. Not all compounds are listed (hit frequency here may not be typical).

miR-21 reporter	Rango complex inh	GLA inh pH 4.5	Rango dissoc inh	Compound
-4%	-6.1%	-3	-16%	Cc1nc(SC2CC(=O)N(c3cc(Cl)cc(Cl)c3)C2=O)nc2c1CCCC2 (centres undefined)
-8%	-1.3%	-1	7%	CCCCc1nccn1CCn1ccnc1CCCC
.	0.1%	.	2%	CCCCn1nc(C(=O)NC2CCCCCC2)c2ccccc2c1=O
-13%	3.6%	7	16%	Cc1cc(C)c(NC(=O)C2=CCN(S(=O)(=O)c3ccc(F)cc3)CC2)c(C)c1
1%	-0.6%	1	-1%	CCCCNC(=O)N1CCN(C(=O)C2CCCO2)CC1 (centres undefined)
5%	0.1%	7	-11%	COc1ccc(CC(=O)Nc2nc(C)cs2)cc1OC
11%	3.9%	?	-8%	CCOC(=O)c1ccc(Nc2sc(C(=O)c3cccc([N+](=O)[O-])c3)c(N)c2C#N)cc1
-2%	-3.7%	-2	-1%	COc1ccc(C(=O)Nc2ccc(S(=O)(=O)Nc3ncccn3)cc2)cc1OC
0%	6.6%	8	-10%	O=C(O)c1ccccc1C(=O)Nc1ccccc1[N+](=O)[O-]
-2%	5.3%	-6	10%	CCOc1ccc(/C=N/NC(=O)C(=O)NCc2ccco2)cc1
.	-0.5%	.	-9%	C=CCNc1cccc(Br)c1
-1%	0.3%	-3	-11%	CCN(CC)S(=O)(=O)c1ccc(OC)c(NC(=O)c2ccc([N+](=O)[O-])cc2)c1
.	0.4%	.	16%	Cc1ccc(-c2cc3onc(-c4ccccc4)c3c(=O)n2C)cc1
?	0.0%	-23	4%	CCc1ccc(C(O)(c2ccccc2OC)C(CN2CCOCC2)c2ccccc2)cc1 (centres undefined)
-1%	1.6%	0	13%	COC(=O)C(O)(CC(=O)Nc1cc(OC)c(OC)c(OC)c1)C(F)(F)F (centres undefined)
-5%	?	-5	1%	Cc1nc2sc(C(c3ccco3)N3CCOCC3)c(O)n2n1 (centres undefined)
.	4.7%	.	1%	O=C(COC(=O)c1cccc(F)c1)NC(=O)NCc1ccccc1
2%	0.1%	-9	5%	O=[N+]([O-])c1nn(-c2ccccc2)[n+]([O-])c1N1CCN(c2ccccc2F)CC1
-3%	-0.6%	.	2%	Cc1ccc(OCC(O)CN2CCCC2)cc1 (centres undefined)
-4%	?	-3	?	N#C/C(=C\c1cn(CCOc2ccccc2)c2ccccc12)C(=O)NCc1ccco1
-7%	1.2%	2	19%	O=C(O)C1CCCCC1C(=O)NCCc1ccncc1 (centres undefined)
-2%	-4.7%	.	6%	CCC1Oc2ccc(C)cc2N(CC(=O)NC2CCCCC2)C1=O (centres undefined)
-14%	-1.6%	8	10%	CCc1nnc(NC(=O)c2ccc(-c3ccc(Cl)cc3)o2)s1
4%	-0.9%	.	15%	CNc1c(NS(=O)(=O)c2cc(NC(C)=O)ccc2C)c(=O)oc2ccccc12
.	4.1%	.	3%	COc1cccc(NC(=O)CN(C)C(=O)c2cc(-c3cccc(Br)c3)nc3ccccc23)c1
-10%	-2.3%	.	-7%	c1ccc(-c2nc(N3CCOCC3)sc2-c2ccccc2)cc1
-6%&-5%	-0.3%	.	?	CCc1ccc(-c2cc(C)no2)cc1S(=O)(=O)Nc1ccc(Cl)cn1
-2%	4.7%	-2	0%	Cc1cc(C)c(-n2nnnc2SC(C)C)c(C)c1
-9%	-1.6%	.	-5%	COc1cccc(/C=C2/C(=O)NN(c3ccc(C)c(C)c3)C2=O)c1
-1%	?	.	9%	COc1ccc(C(=O)O)cc1S(=O)(=O)N1CCN(c2ccccn2)CC1
-12%	1.9%	-1	8%	O=C(NC1CCCCCC1)c1cc(S(=O)(=O)N2CCCCC2)ccc1N1CCOCC1
-7%	?	-1	6%	CCN(CC)S(=O)(=O)c1cccc(-c2n[nH]c(=S)n2/N=C/c2ccc(Br)cc2)c1
0%	0.3%	-5	18%	COc1ccc(N=C2SC(CC(=O)Nc3ccccc3)C(=O)N2CC2CCCO2)cc1 (centres undefined)
4%	1.8%	-2	1%	CC1CCOC2(O1)C(=O)Nc1ccccc12 (centres undefined)
0%	-2.7%	.	13%	CC(=O)c1cccc(NC(=O)C(C)OC(=O)Cc2n[nH]c(=O)c3ccccc23)c1 (centres undefined)
9%	-0.3%	.	-4%	CCN1C(=O)[C@H]2[C@@H](c3ccc(C)cc3)N3C(=O)N(c4ccc(C(F)(F)F)cc4)C(=O)[C@@]3(CC(C)C)[C@H]2C1=O
-28%	-1.8%	-2	-10%	Cc1cc(C(=O)NC2=NCCS2)cs1
-6%	0.2%	-1	-7%	CCC(=O)Nc1cccc(-n2nnnc2SCC(=O)NCc2ccco2)c1
9%	?	2	?	CCSc1n[nH]c2nc3c(c(=O)n12)C1(CCCCC1)Cc1ccccc1-3
.	0.1%	.	-14%	Fc1ccc2c(-c3cccc(C(F)(F)F)c3)c(-c3ccccc3)ncc2c1

Quoted from the entries so far (5 entries):
miR-21 reporter	Rango complex inh	GLA inh pH 4.5	Rango dissoc inh	Compound
0%	0.3%	-5	18%	COc1ccc(N=C2SC(CC(=O)Nc3ccccc3)C(=O)N2CC2CCCO2)cc1 (centres undefined)
4%	1.8%	-2	1%	CC1CCOC2(O1)C(=O)Nc1ccccc12 (centres undefined)
0%	-2.7%	.	13%	CC(=O)c1cccc(NC(=O)C(C)OC(=O)Cc2n[nH]c(=O)c3ccccc23)c1 (centres undefined)
9%	-0.3%	.	-4%	CCN1C(=O)[C@H]2[C@@H](c3ccc(C)cc3)N3C(=O)N(c4ccc(C(F)(F)F)cc4)C(=O)[C@@]3(CC(C)C)[C@H]2C1=O
-28%	-1.8%	-2	-10%	Cc1cc(C(=O)NC2=NCCS2)cs1

Following part
miR-21 reporter	Rango complex inh	GLA inh pH 4.5	Rango dissoc inh	Compound
-9%	-3.1%	-13	1%	CCn1c(=O)c(C(=O)CN2CCc3ccccc32)c(N)n(Cc2ccccc2)c1=O
-3%	8.1%	3	-10%	O=C(O)CC1(CC(=O)Nc2cc3ccccc3cn2)CCCCC1
-2%	-0.8%	-1	-10%	CCCCn1c(O)c(C(CC)=Nc2ccc3c(c2)CCC3)c(=O)[nH]c1=O
-11%	-0.7%	-11	-7%	CCOC(=O)c1c(-c2ccc(C)o2)csc1NC(=O)CSc1nncs1
.	1.5%	.	-9%	CCOc1ccccc1Nc1nnc(SCC(=O)NCC2CCCO2)s1 (centres undefined)
-1%	-1.4%	4	-7%	COc1ccc(CN2CCn3ncc(C(=O)Nc4ccc(Cl)cc4Cl)c3C2=O)cc1
-4%	-1.9%	?	-17%	Nc1cc(C(=O)O)c(Oc2ccc(Cl)cc2Cl)cc1C(=O)O
-22%	-2.3%	-5	-4%	C/C(=N\NC(=O)CC(C)C)c1c(C(F)(F)F)[nH]n(-c2nc3ccccc3s2)c1=O
-3%	-3.6%	3	2%	CCCCNC(=O)CN(c1cc(C(F)(F)F)ccc1Cl)S(C)(=O)=O
1%	-0.1%	.	-3%	Cc1cccc2sc(NC(=O)CSc3nnnn3C)nc12
-1%	0.1%	.	28%	CCOC(=O)c1c(S(=O)(=O)NCc2ccco2)c(C)n(C)c1C
.	-1.2%	.	-9%	CC1C(=O)N2CCCc3cc(NC(=O)C(=O)NCc4ccccn4)cc1c32 (centres undefined)
-3%	-0.6%	4	-4%	CCN(CC)S(=O)(=O)c1cc(NC(=O)C(C)N(C)CC(=O)Nc2c(C)cccc2C)ccc1C (centres undefined)
-2%	6.4%	-11	-6%	CCOc1ccc(N=Nc2c(=O)[nH]n3c(C)cc(C)nc23)cc1
-5%	-0.6%	-24	?	O=C(Nc1ncc(Cc2ccccc2Cl)s1)C1=NCCN1
-2%	-5.5%	-1	-3%	O=[N+]([O-])c1ccc(CN2C=NS(=O)(=O)c3ccccc32)cc1
-3%	-0.7%	0	-17%	COc1cc(C(=O)OCC(=O)NC(=O)C2CCCCC2)ccc1OC(F)F
.	0.3%	.	-2%	CCCn1nc(C(=O)Nc2ccc(N3CCOCC3)cc2)c2ccccc2c1=O
-1%	?	4	7%	Cc1c(NC(=O)NC(C)N2C(=O)C3C4C=CC(C4)C3C2=O)c(=O)n(-c2ccccc2)n1C (centres undefined)
-6%	4.9%	.	16%	CC(C)c1c(C(=O)N/N=C/c2cccc(OCc3ccccc3)c2)nnn1-c1nonc1N
-2%	-1.8%	.	-11%	CCc1ccccc1NC(=O)c1cc(S(=O)(=O)N2CCc3ccccc32)cn1C
-5%	2.5%	3	0%	CN(C)C/C(Cl)=C(\Cl)c1ccccc1
1%	2.4%	-3	0%	CCCCOc1ccc(NC(=O)Cn2c(=O)ccc3c(C)cc(C)nc32)cc1
-2%	-0.7%	.	-5%	Cc1cc(Cl)ccc1NC(=O)CN1CCN(C(=O)c2ccco2)CC1
.	-3.4%	.	-2%	COc1ccc(N2CCN(C(=O)COC(=O)[C@@H](NC(=O)OCc3ccccc3)C(C)C)CC2)cc1
.	-1.1%	.	-1%	CC(C)c1ccc(Nc2nnc(SCC(=O)NCC3CCCO3)s2)cc1 (centres undefined)
-1%	-2.1%	-9	12%	CCn1c(SCC(=O)Nc2ccc3c(c2)OCO3)nnc1-c1ccccc1O
-13%	0.3%	.	8%	CCc1ccc(Nc2n[n+](C)c(-c3ccncc3)s2)cc1
-1%	-2.0%	.	1%	O=C(Nc1ccon1)c1sc2cc(Cl)ccc2c1Cl
4%	-0.5%	-2[21.1 µM]	-7%	COc1ccc(C(C(=O)Nc2ccc(C(C)C)cc2)N(C)C(=O)c2ccc(=O)[nH]c2)cc1 (centres undefined)
-5%	-0.7%	-4	1%	FC(F)(F)c1nc(Oc2ccccc2)c2ccccc2n1
-1%	3.7%	.	-9%	CCOc1ccc(OCCC(=O)OC(C)C(=O)Nc2ccc(C(C)=O)cc2)cc1 (centres undefined)
-1%	0.2%	.	-8%	CC(=O)Nc1ccc(S(=O)(=O)NC(C)c2nc(-c3ccccc3)no2)cc1 (centres undefined)
-1%	-3.6%	.	-1%	CC(Oc1cc2oc(=O)c3c(c2cc1Cl)CCC3)C(=O)N1C[C@H]2C[C@@H](C1)c1cccc(=O)n1C2 (some centres undefined)
?	-1.0%	6	12%	Nc1ncnc(Sc2ncccn2)c1[N+](=O)[O-]
-5%	-0.3%	5	6%	CC(C)OC(=O)c1ccc(COC(=O)c2cnccn2)cc1
-6%	-1.1%	-2	8%	O=C(Nc1nnc(COc2ccc(Cl)cc2)s1)c1cccs1
-6%	9.1%	-1	18%	CC1=C(C(=O)c2ccccc2)C(c2ccc(N3CCOCC3)cc2)NC(=O)N1 (centres undefined)
0%	-2.9%	.	-11%	CCOc1ccccc1CN1C(=O)NC2(CCCCCC2)C1=O
0%	2.3%	-7	1%	CC(C)(C)C(=O)O/N=C(\N)c1ccc([N+](=O)[O-])s1
.	0.6%	.	1%	Cc1nnc(NC(=O)c2ccc3c(c2)NC(=O)CS3)s1
-13%	-3.0%	5	2%	NS(=O)(=O)c1cc(C(=O)OCC(=O)Nc2ccc(Cl)cc2[N+](=O)[O-])ccc1Cl
8%	1.8%	.	-10%	CCN(CC)CCOC(=O)c1ccc(NC(=O)CCCN2C(=O)/C(=C\c3cccs3)SC2=S)cc1
3%	-0.2%	6	1%	O=C(c1ccccc1F)N1CCN(S(=O)(=O)c2ccc3c(c2)OCCO3)CC1
-2%	-1.1%	3	0%	Cc1cc(C)cc(NS(=O)(=O)c2cc(C(=O)NCc3ccccn3)ccc2Cl)c1
.	0.4%	.	12%	CCOC(=O)N1CCN(C(=O)CSc2nnc3[nH]c(=O)c(C)c(C)n23)CC1
6%	-0.6%	.	0%	COc1ccc(N(CC(=O)Nc2ccccc2OC)S(=O)(=O)c2ccc(OC)c(OC)c2)cc1
.	2.2%	.	4%	C=CC[C@@]12C=C(OC)C(=O)C(OC)=C1O[C@H](c1ccc3c(c1)OCO3)[C@H]2C
-2%	-4.9%	.	-14%	COc1cccc(NC(=O)CCc2nnc3ccc(NCc4ccco4)nn23)c1
0%	.	2	.	O=C1CSC(c2ccccc2)N1c1nnc(C23CC4CC(CC(C4)C2)C3)s1 (centres undefined)
1%	0.4%	0	1%	O=C(O)c1cc(Cl)c2ccccc2c1O
-4%	.	-1	.	CC(C)N1CCC2(CC1)C(C#N)=C(N)NC(S)=C2C#N

From PubChem
